Marburg entry inh – blocks Marburg virus binding to or entry into cells; Potency, µM (highest dose often 37.8 µM), for the others: top-dose activity change, negative = inhibition, most hits filed as inhibitors; actives 1.8% (n = 300,000); Marburg virus pseudotyped entry inhibition, cell reporter; control for the full effect not named in the record; about a third of the inactives were read at about 46 µM; active = well fitted inhibition curve with a large enough effect; inconclusive = small, poorly fitted or top-dose-only effect, or effect the other way; inactive = flat fitted curve, though single readings scatter; tested in HEK293 cells; about a fifth of its hits are not listed in these tables; also: % is scaled to controls: 0 for no effect and ±100 for the full control effect; luciferase read-out
RE007 growth inh – less growth of the S. pombe RE007 Vpr strain; S. pombe RE007 Vpr strain, BacTiter-Glo ATP luminescence, 24 h; control for the full effect not named in the record; Potency, µM (doses to about 92.2 µM), for the others: at the highest dose activity change, negative = less growth; actives 0.21% (n = 360,000); active = well fitted falling curve with a large enough effect; inconclusive = small, poorly fitted or top-dose-only effect; inactive = no such curve, though single readings can be large or run the other way;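 also: % is scaled to controls: 0 for no effect and ±100 for the full control effect; nearly all actives have a fitted effect of over 50% in size; the assay follows cell death caused by Vpr and the record does not say whether a fall means rescue or toxicity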
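Fission yeast RE007 carrying one integrated HIV-1 vpr copy, seeded at OD 0.01 in PMG+AL medium with 23 nL pinned compound. Grown 24 h at 30 degrees; viability read by BacTiter-Glo luminescence after 5 min.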
NS1 function inh – influenza NS1 inhibition | S. cerevisiae slowed by influenza A NS1, growth recovery by OD600 | Potency, µM (top dose mostly 46.1 µM), for the others: at the highest dose activity, positive = more growth | actives 0.4% (n = 270,000) | AID 2326; active means well fitted rising curve with a large enough effect; inconclusive means small, poorly fitted or top-dose-only effect; inactive means no such curve, though single readings can be large or run the other way; also: nearly all actives have a fitted effect of over 50% in size
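Growth recovery, yeast-based: influenza A NS1 expressed in S. cerevisiae causes slow growth, and suppressors are detected by OD600. The parent strain without NS1 is used as positive control.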
LASV entry inh – blocks Lassa virus binding to or entry into cells; actives 1.2% (n = 300,000); Potency, µM (titrated, usually from 37.9 µM), inactives show at the highest dose activity change, negative = inhibition, most hits filed as inhibitors; Lassa virus pseudotype entry inhibition, cell reporter; control for the full effect not named in the record; AID 540256; active means well fitted inhibition curve with a large enough effect; inconclusive means small, poorly fitted or top-dose-only effect, or effect the other way; inactive means flat fitted curve, though single readings scatter; tested in HEK293 cells; also: % is scaled to controls: 0 for no effect and ±100 for the full control effect; nearly all actives have a fitted effect of over 50% in size; luciferase read-out
Cruzain inh Det – inhibitors of Trypanosoma cruzi cruzain with detergent; P25779; actives 0.43% (n = 200,000); AID 1478; Potency, µM, for the others: max response, negative = inhibition, actives largely listed as inhibitors; purified cruzain, Z-FR-AMC fluorescence, 0.01% Triton;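 also: plate controls were neutral wells for no effect and buffer without enzyme for full effect; nearly all actives have a fitted effect of over 40% in size; top concentration of the series not given in the record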
Target sequence (P25779 123-467 limits assumed): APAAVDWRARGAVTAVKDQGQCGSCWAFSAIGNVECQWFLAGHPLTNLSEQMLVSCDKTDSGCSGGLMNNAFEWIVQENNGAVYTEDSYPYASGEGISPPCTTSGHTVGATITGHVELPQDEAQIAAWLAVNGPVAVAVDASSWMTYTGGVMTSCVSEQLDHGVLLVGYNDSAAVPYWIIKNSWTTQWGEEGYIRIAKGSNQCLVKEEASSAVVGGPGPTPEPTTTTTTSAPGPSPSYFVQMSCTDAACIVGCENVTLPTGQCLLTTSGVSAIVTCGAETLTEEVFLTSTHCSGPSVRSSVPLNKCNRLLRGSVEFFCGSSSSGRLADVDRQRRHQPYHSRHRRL
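Compounds were screened in titration against cruzain (1.5 nM) with 0.01% Triton X-100 to counter colloidal aggregation. Activity was the AMC fluorescence increase over 60 s after adding 2 uM Z-FR-AMC at pH 5.5.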
SARS PLP yeast – SARS-CoV PLP inhibition in yeast. S. cerevisiae expressing SARS-CoV PLpro, growth rescue; control for the full effect not named in the record. Potency, µM (top dose mostly 32.9 µM), for the others: at the top dose activity, positive = growth rescue. actives 0.19% (n = 330,000); active means well fitted rising curve with a large enough effect; inconclusive means small, poorly fitted or top-dose-only effect; inactive means no such curve, though single readings can be large or run the other way; also: 0% is about no effect; nearly all actives have a fitted effect of over 55% in size; growth read by luminescence after 48 h
2A StopGo – lowers the luciferase signal of an FMDV 2A StopGo reporter. human cells with a luciferase reporter of 2A StopGo recoding; control for the full effect not named in the record. Potency, µM (top dose mostly 57.9 µM), without a hit: top-dose signal change, negative = less light. actives 1.2% (n = 410,000). AID 1159524; active = well fitted falling curve with a large enough effect; inconclusive = small, poorly fitted or top-dose-only effect; inactive = no such curve, though single readings can be large or run the other way; tested in HEK293T cells; also: % is scaled to controls: 0 for no effect and ±100 for the full control effect; nearly all actives have a fitted effect of over 45% in size; luciferase light after 4 h
Cruzain noTriton – cruzain (T. cruzi) inhibition without detergent | purified cruzain, Z-FR-AMC fluorescence, no detergent | Potency, µM, for inactives: max response, negative = inhibition, usual class: inhibitors | actives 2.3% (n = 200,000) | AID 1476;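 also: plate controls were enzyme without inhibitor for no effect and buffer without enzyme for full effect; nearly all actives have a fitted effect of over 40% in size; top concentration of the series not given in the record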
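Purified cruzain at 1.5 nM, pre-incubated 15 min with compound at room temperature in 100 mM sodium acetate pH 5.5, 5 mM DTT, 0.00005% Triton X-100. Reaction started with 2 uM Z-FR-AMC; AMC fluorescence increase over 60 s gives rate.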
* marks the source's active call; other numbers are inactive results; & = joins results of further samples; [ ] = dose if it differs, or a comment. Unless noted, calls follow the shape of the dose curve; as a rule, active = well fitted curve in the direction sought with a large enough effect; inconclusive = small, poorly fitted or top-dose-only effect, or another doubt; inactive = no such curve, though single readings can be large; an effect the other way counts as inactive or inconclusive. Potency is read from the fitted curve at half-maximal effect. This is a random part of the collection; 4.7% or so of the library scored in one or more.

`Cc1cccc(Nc2nnc(-c3ccc(C(=O)N4C[C@H]5C[C@H](C4)c4cccc(=O)n4C5)cc3)c3ccccc23)c1` gave Marburg entry inh inconclusive, RE007 growth inh -3%, NS1 function inh 0%, LASV entry inh inconclusive, Cruzain inh Det -2.1%, SARS PLP yeast 1%, 2A StopGo 0% and Cruzain noTriton 23%.
`COc1ccc(N(C(=O)c2snc(C(N)=O)c2N)C(C(=O)NC2CCCCC2)c2ccc(F)cc2)c(OC)c1` (configuration not stated) gave Marburg entry inh inconclusive, RE007 growth inh 10%, NS1 function inh 1%, LASV entry inh inconclusive, SARS PLP yeast 0% and 2A StopGo inconclusive.
Cc1cccc(N(CC(=O)NCc2ccc3c(c2)OCO3)C(=O)CCC(=O)Nc2ccccn2)c1 was read as Marburg entry inh inconclusive, RE007 growth inh -1%, NS1 function inh -20%, LASV entry inh inconclusive, Cruzain inh Det 2.8%, SARS PLP yeast 9%, 2A StopGo -18% and Cruzain noTriton -5%.
For Cc1ccc(NC(=O)Cn2cc(C(F)(F)F)cc(Cl)c2=O)cc1S(=O)(=O)N1CCCCC1 the results were Marburg entry inh inconclusive, RE007 growth inh -7%, LASV entry inh inconclusive, SARS PLP yeast -1% and 2A StopGo -19%.
`CCc1ccc(C(=O)COC(=O)CNC(=O)c2ccc(N3C(=O)c4ccccc4C3=O)cc2)cc1` gave Marburg entry inh -1%, RE007 growth inh 6%, NS1 function inh 15%, LASV entry inh 3%, Cruzain inh Det 1.3%, SARS PLP yeast 4%, 2A StopGo 28% and Cruzain noTriton -20%.
`CCOc1cc(N2CCCC2)ccc1[N+](=O)[O-]` gave Marburg entry inh -8%, RE007 growth inh -1%, NS1 function inh -4%, LASV entry inh 8%, Cruzain inh Det -7.4%, SARS PLP yeast inconclusive, 2A StopGo 0% and Cruzain noTriton -4%.
For O=C(CN1CCN(Cc2ccccc2)C1=O)NCCCN1CCOCC1 the results were RE007 growth inh 3%, NS1 function inh 5%, Cruzain inh Det 1.6%, SARS PLP yeast -2%, 2A StopGo -7% and Cruzain noTriton -9%.
For COc1ccc(C2c3ccc(O)cc3Oc3ncn(CCN4CCOCC4)c(=N)c32)cc1 (configuration not stated) the results were Marburg entry inh -22%[46.1 µM], RE007 growth inh 6%, NS1 function inh -4%, LASV entry inh -27%, SARS PLP yeast 1% and 2A StopGo -17%.
`COc1ccc(C2NC(=O)NC(C)=C2C(=O)Nc2cccc(C)c2C)cc1` (configuration not stated) gave RE007 growth inh 6%, NS1 function inh -9%, Cruzain inh Det -2.9%, SARS PLP yeast 12%, 2A StopGo -11% and Cruzain noTriton -3%.
For Cc1ccc(C(C)C)cc1C(=O)CC1(O)C(=O)N(C)c2ccccc21 (configuration not stated) the results were Marburg entry inh -30%, RE007 growth inh -9%, NS1 function inh -7%, LASV entry inh -5%, Cruzain inh Det 0.4%, SARS PLP yeast -3%, 2A StopGo inconclusive and Cruzain noTriton 14%.
Cc1ccccc1-c1nnc(SCC(=O)NC2CCCC2)n1C was read as Marburg entry inh -11%, RE007 growth inh 26%, LASV entry inh 0%, SARS PLP yeast -7% and 2A StopGo -8%.
Screening CCn1c(=N)c(S(=O)(=O)c2ccc(F)cc2)cc2c(=O)n3ccccc3nc21 returned Marburg entry inh -22%, RE007 growth inh -15%, NS1 function inh -1%, LASV entry inh -7%, Cruzain inh Det 22µM*, SARS PLP yeast 0%, 2A StopGo -28% and Cruzain noTriton 20µM*.
Screening CCCc1cc(C(=O)Nc2cc(C)ccc2O)no1 returned Marburg entry inh inconclusive, RE007 growth inh -21%, NS1 function inh -11%, LASV entry inh inconclusive, SARS PLP yeast -10% and 2A StopGo 41%[activator].
`O=C(O)c1cccc(-c2ccc(/C=N/n3cnnc3)o2)c1` gave RE007 growth inh 6%, NS1 function inh -8%, SARS PLP yeast 2% and 2A StopGo 6%.
Screening COc1ccc(N(CN2C(=O)C3CC=CCC3C2=O)C(=O)c2ccco2)cc1 (configuration not stated) returned Marburg entry inh -26%, RE007 growth inh -2%, NS1 function inh 15%, LASV entry inh 9%, Cruzain inh Det 6.3%, SARS PLP yeast inconclusive, 2A StopGo 2% and Cruzain noTriton 8%.
COc1cc(OC)c2ccc(=O)oc2c1C(CCN1CCN(c2ccccc2)CC1)c1ccc2c(c1)OCO2 (configuration not stated) was read as RE007 growth inh -6%, NS1 function inh -7%, SARS PLP yeast 1% and 2A StopGo 8%.
COc1ccc(NC(=O)C(C)N(c2ccccc2)S(C)(=O)=O)cc1 (configuration not stated) was read as Marburg entry inh -8%[46.1 µM], LASV entry inh 4%[46.1 µM], Cruzain inh Det -2.0%, 2A StopGo -11% and Cruzain noTriton 3%.
`CC1CC(=O)NN=C1c1ccc(N(C)C)c([N+](=O)[O-])c1` (configuration not stated) gave Marburg entry inh 2%, RE007 growth inh 8%, NS1 function inh 4%, LASV entry inh -29%, Cruzain inh Det -0.8%, SARS PLP yeast 2%, 2A StopGo -14% and Cruzain noTriton -3%.
For Cc1ccc(OCC(O)Cn2c(=N)n(CCN3CCCCC3)c3ccccc32)cc1 (configuration not stated) the results were Marburg entry inh 8.2µM*, RE007 growth inh -10%, NS1 function inh 3%, LASV entry inh inconclusive, Cruzain inh Det 0.7%&-2.2%, SARS PLP yeast 0%, 2A StopGo inconclusive and Cruzain noTriton -1%&-4%.
`NC(=N\N=Cc1ccco1)/C(N)=N/N=Cc1ccco1` gave Marburg entry inh inconclusive, RE007 growth inh -6%, LASV entry inh 6%[46.1 µM] and 2A StopGo 31%[activator].
`Cc1cc(N2C(=O)CC(Cc3ccccc3)C2=O)no1` (configuration not stated) gave Marburg entry inh 6%, RE007 growth inh 4%, NS1 function inh -15%, LASV entry inh 0%, Cruzain inh Det -0.2%, SARS PLP yeast -1%, 2A StopGo 3% and Cruzain noTriton 7%.
Screening Cc1cc(=O)[nH]c(SCc2ccc(Cl)cc2Cl)n1 returned RE007 growth inh 0%, NS1 function inh -6%, SARS PLP yeast 0% and 2A StopGo -21%.
COC(=O)[C@@]1(Cc2ccc(F)cc2)[C@H]2c3cc(C(=O)N(C)C)n(Cc4ccc(S(C)(=O)=O)cc4)c3C[C@H]2CN1C(=O)c1ccccc1 was read as RE007 growth inh -6%, Cruzain inh Det -1.6%, 2A StopGo -28% and Cruzain noTriton -6%.
Screening CCCCn1nc(-c2ccccc2)c2nc3ccccc3nc21 returned NS1 function inh 2%, Cruzain inh Det -2.2%, SARS PLP yeast 1% and Cruzain noTriton 20%.
CC(NC(=O)C1CCCN(S(=O)(=O)c2ccc(-n3cnnn3)cc2)C1)c1ccc(F)cc1 (configuration not stated) was read as Marburg entry inh -4%[46.1 µM], RE007 growth inh -8%, NS1 function inh 0%, LASV entry inh -19%[46.1 µM], SARS PLP yeast -1% and 2A StopGo -12%.
`CC(C)Oc1ccc(/C(O)=C2/C(=O)C(=O)N(CCCn3ccnc3)C2c2cccnc2)cc1` (configuration not stated) gave Marburg entry inh 1%, RE007 growth inh 8%, NS1 function inh 2%, LASV entry inh 14%, Cruzain inh Det 0.1%, SARS PLP yeast -2%, 2A StopGo -20% and Cruzain noTriton 9%.
`COc1ccc(NC(=O)CN2C(=O)CSc3ccc(S(=O)(=O)N(C)C)cc32)cc1OC` gave LASV entry inh 7%[46.1 µM], Cruzain inh Det -2.5%, 2A StopGo -13% and Cruzain noTriton 4%.
N#Cc1ccccc1OCC(=O)NCCNC(=O)COc1ccccc1C#N was read as Marburg entry inh 1%, RE007 growth inh -6%, LASV entry inh -4%, SARS PLP yeast -5% and 2A StopGo -13%.
c1ccc2c(c1)ncn2-c1ccc(-c2ccnc3ncnn23)cc1 was read as Marburg entry inh -29%[46.1 µM], RE007 growth inh -4%, LASV entry inh -8%, SARS PLP yeast 0% and 2A StopGo -1%.
Cc1ccc(C2=NN(C(=O)CCCC(=O)O)C(c3ccco3)C2)cc1 (configuration not stated) was read as Marburg entry inh 1%[46.1 µM], RE007 growth inh 5%, NS1 function inh 4%, SARS PLP yeast -2% and 2A StopGo 19%.
`COc1ccc(C(=O)NCc2ccc(-c3nc4ccccc4s3)cc2)cc1OC` gave Marburg entry inh -2%, RE007 growth inh -4%, NS1 function inh 6%, LASV entry inh -17%, Cruzain inh Det -4.9%, SARS PLP yeast -3%, 2A StopGo 23% and Cruzain noTriton inconclusive.
`CSc1nc(Oc2cccc(C(F)(F)F)c2)cc(C(F)(F)F)n1` gave Marburg entry inh inconclusive, RE007 growth inh 3%, NS1 function inh inconclusive, LASV entry inh 3%, Cruzain inh Det 2.5%, SARS PLP yeast 2%, 2A StopGo -17% and Cruzain noTriton 10%.
CCOc1ccccc1NC(=O)CCc1c(C)nn(-c2ccc(N3CCCCC3)nn2)c1C was read as RE007 growth inh -20%, NS1 function inh -15%, LASV entry inh inconclusive, Cruzain inh Det -4.8%, SARS PLP yeast -5%, 2A StopGo -13%&-25% and Cruzain noTriton 20%.
For CCCOC(=O)CCCCC1SCC(NC(=O)OC)C1NC(=O)OC (configuration not stated) the results were Marburg entry inh 29%, RE007 growth inh -3%, NS1 function inh -16%, LASV entry inh -5%, Cruzain inh Det 3.1%, SARS PLP yeast 6% and Cruzain noTriton 3%.
`CCOC(=O)C1=C(C)N=C2c3ccccc3C(=O)C2C1c1ccccc1` (configuration not stated) gave Marburg entry inh -3%[46.1 µM], RE007 growth inh 6%, NS1 function inh 11%, LASV entry inh 10%, Cruzain inh Det 1.9%, SARS PLP yeast -1%, 2A StopGo 0% and Cruzain noTriton 7%.
Screening CCCC(C(=O)Nc1ccc2c(C)cc(=O)oc2c1)c1ccccc1 (configuration not stated) returned Marburg entry inh 28%[46.1 µM], RE007 growth inh -5%, NS1 function inh -6%, LASV entry inh -25%[46.1 µM], SARS PLP yeast -2% and 2A StopGo -19%.

Bioassay records: PubChem BioAssay, National Center for Advancing Translational Sciences (NCATS)
